Compound activity deposited in PubChem by National Center for Advancing Translational Sciences (NCATS).
N370S GC mod – inhibitors or activators of N370S glucocerebrosidase for Gaucher disease; P04062; N370S GC spleen homogenate, 4MU-glucoside fluorescence; Potency, µM (highest dose often 59.4 µM), for inactives: at the highest dose activity change, negative = inhibition, most hits filed as inhibitors; hit rate 0.092% among 330,000; AID 2101; active = well fitted inhibition curve with a large enough effect; inconclusive = small, poorly fitted or top-dose-only effect, or effect the other way, or another doubt; inactive = no such curve, though single readings can be large or run the other way;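 note: 0% = full enzyme activity and -100% = no enzyme basal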
An asterisk follows results filed as active; ? = inconclusive; & = joins results of further samples; [ ] = another dose, or the depositor's remark. Potency is the fitted concentration of half-maximal effect.

SMILES	N370S GC mod
CCOc1ccc(CN(C)CCc2ccccn2)cc1	-9%
Cn1cc(CN2CCC(n3nccc3NC(=O)CCCc3ccccc3)CC2)cn1	-9%
Cc1onc(-c2c(Cl)cccc2Cl)c1COC(=O)c1ccc(Cl)cc1[N+](=O)[O-]	-15%
CC1(C)CC(C)(c2ccc(O)cc2O)N(c2cccc(Cl)c2)C(=S)N1 (stereo not given)	2%
O=C(NCC1CCCO1)C1CCC(N2C(=O)c3ccccc3C2=O)CC1 (stereo not given)	-20%
Cc1ccc2c(c1)CCCN2C(=O)c1cc(C)on1	3%
Cc1ccccc1C(=O)NNC(=O)C1CCCN(c2ncccn2)C1 (stereo not given)	-20%
O=C(N/N=C/c1ccccn1)c1[nH]c2ccc([N+](=O)[O-])cc2c1-c1ccccc1	-1%
Cn1c(SCC(N)=O)nnc1C1CCN(S(=O)(=O)c2ccccc2C(F)(F)F)CC1	5%
C/C=C/c1ccc(OCCCCn2cncn2)c(OC)c1	-10%
COc1ccc(C(=O)N[C@H](C(=O)Nc2nc3ccccc3[nH]2)C(C)C)cc1	22%
COc1cccc(C2CC(c3cccc(Br)c3)n3ncnc3N2)c1 (stereo not given)	-4%
CN1CCN(C(=O)c2ccc3c(c2)NC(=O)C(C)(C)O3)CC1	6%
O=C(NN1C(=O)C2C(C1=O)C1C=CC2C12CC2)c1cccc(Cl)c1 (stereo not given)	2%
Cc1ccc(S(=O)(=O)NNC(=O)c2ccc3ccccc3n2)cc1	-26%
CC(Oc1ccc(C(=O)NCCc2ccccc2)cc1)C(=O)O (stereo not given)	0%
COc1ccccc1C1CCN(C(=S)Nc2ccc(Br)cc2)CC1	0%
Cc1sc(NC(=S)NC(=O)c2cccs2)nc1-c1ccc(C(C)C)cc1	7%
Cc1ccc(NC(=O)COC(=O)c2cc(Cl)ccc2Cl)c(Br)c1	3%
C=CCNC(=O)c1onc(CSc2ccccn2)c1C(=O)NCC=C	0%
Cc1c(OCC(=O)N2CCC(C(=O)NCCCC(=O)O)CC2)ccc2c1oc(=O)c1ccccc12	30%
COC(=O)CN1C(CN2CCOCC2)=Nc2ccc(Br)cc2C1c1ccccc1 (stereo not given)	-3%
CCSc1nnc(NC(=O)C2CC2c2ccccc2)s1 (stereo not given)	25%
Cc1ccc(S(=O)(=O)Nc2cc(C(=O)NCCN(C)C)ccc2N2CCCC2)cc1	3%

Three entries from above, as comma-separated lines.
Compound,N370S GC mod
C=CCNC(=O)c1onc(CSc2ccccn2)c1C(=O)NCC=C,0%
CN1CCN(C(=O)c2ccc3c(c2)NC(=O)C(C)(C)O3)CC1,6%
Cc1ccc(S(=O)(=O)Nc2cc(C(=O)NCCN(C)C)ccc2N2CCCC2)cc1,3%

The list continues:
SMILES	N370S GC mod
CCn1c(CC(=O)Nc2cccc(OC)c2)nnc1SCC(=O)N1CCN(c2ccccc2)CC1	13%
O=C(CSc1nc(N2CCOCC2)nc(N2CCOCC2)n1)Nc1ccccc1F	8%
Cc1ccc([N+](=O)[O-])c(C(=O)Nc2cccnc2Cl)c1	-1%
COc1ccc(N(Cc2cc3ccc(C)cc3[nH]c2=O)C(C)=O)cc1	20%
Cc1ccc2cccc(NC(=O)c3ccc(Br)o3)c2n1	?
CCc1ccc(C(=O)NCc2ccc(Cl)cc2)cc1	3%
COc1ccc(N2CCN(S(=O)(=O)c3cccc(C(F)(F)F)c3)CC2)cc1	1%
Cc1cc(N)c2cc(NC(=O)/C=C/c3ccccc3Cl)ccc2n1	?
COCCNC(=O)C(c1ccccc1F)N(C(=O)C(=O)NC1CCCC1)C1CCCCC1 (stereo not given)	-7%
COc1cc2c(cc1OC)C(c1ccc(O)cc1)NCC2 (stereo not given)	-3%
COc1cccc(NC(=O)CCC(=O)Nc2cc(OC)c(NC(=O)c3cccs3)cc2OC)c1	-1%
CN1CCN(C(=S)NC(=O)c2ccccc2Br)CC1	-3%
O=C(/C=C/c1cccc([N+](=O)[O-])c1)Nc1ccccn1	3%
CCc1ccccc1NC(=O)c1ccc2c(O)c(S(=O)(=O)c3ccc(OC)cc3)c(=O)[nH]c2c1	-11%
O=C(NCc1nc2ccccc2[nH]1)C1=C[C@H](C2CC2)C[C@H](OCc2ccc(CO)cc2)O1	22%
Cc1cccc(C(=O)Oc2ccccc2/C=N/NC(=O)c2ccc(NC(=O)C(C)(C)C)cc2)c1	-2%
COCCn1c(=S)[nH]c2cc(C(=O)N3CCc4ccccc43)ccc2c1=O	6%
COCCCN1C(=O)C(O)=C(C(=O)c2ccco2)C1c1ccccc1 (stereo not given)	-13%
Cc1cc(C)c2[nH]c(=O)c(CN(Cc3ccco3)C(=S)NCC3CCCO3)cc2c1 (stereo not given)	3%
CCCc1cc(=O)n2[nH]c(C(F)(F)F)nc2n1	0%
COC(=O)c1cccc(NC(=O)CC2NCCNC2=O)c1 (stereo not given)	0%
N#C/C(=C\c1ccco1)C(=O)Nn1cnnc1	-5%
O=C(COC(=O)C1CCN(C(=O)c2ccc(Cl)cc2)CC1)c1ccco1	-1%
CCN(CC(=O)NCc1ccc(Cl)cc1)C(=O)CCC(=O)c1ccc(C)cc1	-2%

Ordered by heavy-atom count (ascending): 3 of the compounds above
SMILES	N370S GC mod
COCCCN1C(=O)C(O)=C(C(=O)c2ccco2)C1c1ccccc1 (stereo not given)	-13%
O=C(NCc1nc2ccccc2[nH]1)C1=C[C@H](C2CC2)C[C@H](OCc2ccc(CO)cc2)O1	22%
COc1cccc(NC(=O)CCC(=O)Nc2cc(OC)c(NC(=O)c3cccs3)cc2OC)c1	-1%

(cont.)
SMILES	N370S GC mod
Cc1cc(Br)ccc1NC(=O)CNC(=O)CN(C)Cc1nc2ccccc2c(=O)[nH]1	-1%
Cc1ccc(/C=C/C(=O)Nc2cc(S(N)(=O)=O)ccc2O)cc1	5%
O=C(CNCc1ccc(Cl)cc1)Nc1ccc(C(=O)N2CCCCCC2)cc1	-4%
COc1ccc(NC(=O)/C=C/c2ccco2)cn1	-15%
CCOC(=O)N1CCN(C(=O)CCCCCn2c(=S)[nH]c3ccsc3c2=O)CC1	18%
Cc1cc(/C=N/NC(=O)Cn2c3ccccc3c(=O)c3ccccc32)c(C)n1-c1ccccc1	6%
CCn1c(SCc2cccc(F)c2)nc2c(c1=O)SCC2	10%
C#CC1(NC(=O)NC(=O)c2c(F)cccc2F)CCCCC1	9%
COc1ccc(C(=O)NCCc2c[nH]c3ccccc23)cc1[N+](=O)[O-]	-1%
Cc1cc(C)n2nc(SCC(=O)c3cccs3)nc2n1	6%
CCOC(=O)C1=C(CN2CCc3ccccc32)NC(=O)NC1c1ccc(Cl)cc1 (stereo not given)	-12%
CN(C)c1nc(N2CCN(c3ccc(F)cc3)CC2)c(C#N)c(=O)o1	-2%

Reformatted as labelled records: part of the list above
> CCOC(=O)N1CCN(C(=O)CCCCCn2c(=S)[nH]c3ccsc3c2=O)CC1
  N370S GC mod: 18%
> Cc1cc(Br)ccc1NC(=O)CNC(=O)CN(C)Cc1nc2ccccc2c(=O)[nH]1
  N370S GC mod: -1%
> Cc1ccc(/C=C/C(=O)Nc2cc(S(N)(=O)=O)ccc2O)cc1
  N370S GC mod: 5%
> COc1ccc(NC(=O)/C=C/c2ccco2)cn1
  N370S GC mod: -15%

New compounds follow.
SMILES	N370S GC mod
CN(CCCNC(=O)COc1cc(=O)n(C)c2ccccc12)Cc1ccccc1	2%
COC(=O)Nc1ccc(S(=O)(=O)N2CCCCC2C(=O)NCc2ccco2)cc1 (stereo not given)	?
CCCC(=O)n1nc(-c2ccc(Cl)cc2)nc1SC	-5%
COc1ccc(N(C)S(=O)(=O)c2ccc3c(c2)CC(C)N3C(=O)C2CC2)c(OC)c1 (stereo not given)	-3%
C=CCn1c(COc2ccccc2F)nnc1SCC(=O)Nc1cc(C)on1	7%
C/C=C/c1ccc(OCC(=O)Nc2cc(S(=O)(=O)N3CCOCC3)ccc2N2CCCC2)c(OC)c1	-2%
O=C(COc1ccc(Cl)cc1)NCc1nnc(SCC(=O)Nc2ccccc2F)o1	-8%
COc1ccccc1COC(=O)Nc1c(C)nn(C)c1Cl	-4%
CCC(CC)NC(=O)Nc1ccc(F)cc1F	6%
CCOC(=O)c1ccc(NC(=O)COc2ccc(CNC3CCCCC3)cc2OC)cc1	-26%
CCCCc1n[nH]c(=S)n1Cc1ccc(Cl)cc1	-10%
CC(=O)N1CC(C)Oc2ccc(S(=O)(=O)NC(CC(=O)O)c3cc(C)ccc3C)cc21 (stereo not given)	1%
CC(=O)NC(Cc1cccc(F)c1)C(=O)NC1CCN(C(=O)c2ccc(C)cc2)CC1 (stereo not given)	-3%
Cc1sc(NC(=O)c2ccco2)c(C(c2cccnc2)N2CCC(C)CC2)c1C (stereo not given)	-20%
COCCCNC(=O)CN(CCc1ccccc1)S(=O)(=O)c1ccccc1	-16%
Cc1ccc(C)c(N/N=C2\CCCNC2=O)c1	1%
Cn1c(CNC2CCCCC2)nc2ccccc21	5%
CCOc1ccc(S(=O)(=O)N2CCC(C(=O)N3CCCCCC3)CC2)cc1C	6%
CC(=O)n1cc(/C=N/NC(=O)c2sc(C)nc2C)c2ccccc21	0%
CC(C)(C)c1ccc(-c2nnc(N)s2)cc1	-2%
O=c1ccc2cc(S(=O)(=O)N3CCOCC3)ccc2o1	1%
O=C1CCC(C(=O)N2CCOCC2)CN1Cc1cccc(C(F)(F)F)c1 (stereo not given)	-10%
Cc1cccc(-c2cc(C(=O)Nc3sc(C)c(C)c3C(N)=O)c3ccccc3n2)c1	-3%
Cc1c(NS(=O)(=O)c2ccc(NC3CCCC3)c([N+](=O)[O-])c2)c(=O)n(-c2ccccc2)n1C	8%
NS(=O)(=O)c1ccc(CCNC(=O)CCc2nc3sc4c(c3c(=O)[nH]2)CCCC4)cc1	-2%
Cc1ccc(N(CC(=O)NC2CC2)S(=O)(=O)c2ccccc2)c(C)c1	-20%
COc1ccccc1OCC(=O)Sc1ccc(C)cc1	0%
Cc1ccc(C(C)C)c(OCC(=O)NNC(=O)CC2OC(=O)c3ccccc32)c1 (stereo not given)	2%
CCN(CC)S(=O)(=O)c1ccc(/C=C/C(=O)Nc2ccc(F)c(F)c2F)cc1	22%
O=C(NCCCN1CCCC1=O)C1CCN(S(=O)(=O)N2CCOCC2)CC1	-3%
CCN(CC)CCNC(=O)Cc1c(C(=O)O)n(C)c2ccccc12	-29%
O=C(COc1ccc(F)cc1)Nc1ccc(-n2cnnn2)cc1	6%
O=C(NCc1ccc2c(c1)OCO2)c1cc([N+](=O)[O-])ccc1N1CCCCC1	13%
CN(C)C(CNC(=O)c1ccc(NS(=O)(=O)c2cccc([N+](=O)[O-])c2)cc1)c1ccco1 (stereo not given)	-14%
Cc1c(C(=O)N2CC3(CC(c4cccc(NC(=O)CC(c5ccccc5)c5ccccc5)c4)=NO3)C[C@@H]2C(N)=O)cc([N+](=O)[O-])cc1[N+](=O)[O-] (stereo not given in full)	0%
CC(C)Sc1nc2c(c(=O)[nH]c(=O)n2C)n1Cc1ccccc1	-8%
C=C1CC[C@H](O)C/C1=C/C=C1\CCC[C@]2(C)[C@@H]([C@H](C)/C=C/[C@H](C)C(C)C)CC[C@@H]12	-18%
O=C(CCN1CCN(CC(=O)Nc2ccccc2Cl)CC1)Nc1ccccc1F	-20%
Cc1cc(C)c(S(=O)(=O)n2c([N+](=O)[O-])cnc2C)c(C)c1	?
CCCC(=O)Nc1nnc(CC(=O)OCC)s1	-1%
Cc1cc(C)n(C(=O)COc2c(C)cccc2C)n1	2%
C=CCn1c(COc2cccc(C)c2)nnc1SCn1nnc2ccccc2c1=O	4%
NS(=O)(=O)c1ccc(NC(=O)COC(=O)/C=C/c2ccc([N+](=O)[O-])cc2)cc1	-5%
O=C(Nc1ccccc1)c1cc2ccccc2[nH]1	14%
Cc1ccc(C(=O)CCC2CCCCC2=O)cc1 (stereo not given)	-1%
Cc1cnc(C(=O)OC(C)C(=O)Nc2ccc3c(c2)OCCO3)cn1 (stereo not given)	-2%
CCN(C(=O)c1ccc(C)c(Br)c1)c1ccccc1	11%
Cc1nnc(SCC2=C(C(=O)O)N3C(=O)[C@@H](NC(=O)Cn4cnnn4)[C@H]3SC2)s1	-11%&1%&1%
COC(=O)c1nc(-c2ccccc2)oc1N1CCOCC1	7%
COc1ccc([N+](=O)[O-])cc1NC(=O)Cc1ccccc1Cl	3%
Cn1cc([N+](=O)[O-])c(C(=O)Nc2sc3c(c2C#N)CCC3)n1	-1%
COC(=O)c1cn(NC(=O)c2cccc(N(C)C)c2)c(=O)c2ccccc12	8%
O=C(NCCCN1CCOCC1)c1cc(-c2ccccc2)on1	-1%
Nc1cccc(-c2cc(-c3ccccc3)nc(-c3cccc(N)c3)n2)c1	5%
CCOc1ccccc1-n1c(=S)sc2c(=O)n(-c3ccccc3)c(=S)[nH]c21	0%
Cc1nnc(SCC(=O)N2CC(=O)Nc3ccccc32)n1-c1ccccc1	5%
NC(=O)c1ccccc1NC(=O)N1CCOCC1	5%
CC1CCc2sc(C(=O)NCc3ccc(F)cc3)cc2C1 (stereo not given)	?
Cc1nn(-c2ccccc2)c(N2CCCC2)c1/C=N/NC(=O)c1cc2ccccc2cc1O	4%
OCCOCCNc1ncnc2c1c(-c1ccccc1)cn2-c1ccccc1	?
The list goes on.
SMILES	N370S GC mod
COCCNC(=O)/C(C#N)=C/c1cc(C)n(-c2ccc(C)cc2)c1C	-12%
COC/C=C/C1=CC2=CC(=O)C(C)(OC(=O)c3cnc4ccccc4n3)C(=O)C2=CN1CCCOC(C)C (stereo not given)	-8%[12.8 µM]
CC(=O)OCC1=C(C(=O)O)N2C(=O)C(NC(=O)c3ccc(COc4cccc(Cl)c4Cl)o3)C2SC1 (stereo not given)	-3%
Cn1c(CCNC(=O)c2ccc(F)cc2)nc2ccccc21	0%
O=C(Cc1coc2ccc3ccccc3c12)N1CCc2ccccc21	12%
CCCc1ncc(C(O)(c2ccccc2)c2ccc(C)cc2)n1C (stereo not given)	17%
CC(=O)OC(C)[C@H]1CC[C@H]2[C@@H]3CC[C@H]4C[C@@H](OC(C)=O)CC[C@]4(C)C3=CC[C@]12C (stereo not given in full)	0%
CC(C)(C)n1ncc2c(=O)n(Cc3c(F)cccc3Cl)cnc21	6%

A portion of the library; most or all hits stand in other tables.
